Bioassay records from PubChem.
GLA inh pH 4.5 = inhibitors of human alpha-galactosidase A at pH 4.5; P06280; purified enzyme, 4-MU-alpha-Gal fluorescence, pH 4.5; activity change, negative = inhibition, % at 105 µM; 230,000 tested, under 10 active; inconclusive = small, poorly fitted or top-dose-only inhibition, or a rising curve; inactive = flat fitted curve, though single readings scatter; no compound was filed as active;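 further: 0% = full activity with enzyme and -100% = basal without enzyme; dose as in the result columns while the protocol names 77 µM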
Target sequence (P06280 whole entry, looked up): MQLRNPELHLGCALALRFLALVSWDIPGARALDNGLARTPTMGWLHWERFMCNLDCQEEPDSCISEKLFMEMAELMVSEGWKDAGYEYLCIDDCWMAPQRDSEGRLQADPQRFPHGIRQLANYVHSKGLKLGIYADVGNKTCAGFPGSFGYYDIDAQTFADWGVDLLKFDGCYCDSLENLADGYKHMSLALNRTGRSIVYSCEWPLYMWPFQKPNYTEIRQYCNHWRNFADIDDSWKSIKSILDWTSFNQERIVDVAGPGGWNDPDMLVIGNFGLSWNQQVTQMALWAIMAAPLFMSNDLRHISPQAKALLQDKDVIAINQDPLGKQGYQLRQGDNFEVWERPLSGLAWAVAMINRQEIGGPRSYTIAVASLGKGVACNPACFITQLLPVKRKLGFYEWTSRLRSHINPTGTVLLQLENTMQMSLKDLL
Rango complex inh = Rango-importin beta binding inhibition; Q14974; Potency, µM (doses to about 92.2 µM), for the others: at the top dose inhibition of complex formation; Rango CFP/YFP FRET sensor + importin beta, 45 min; 0.031% of 340,000 active; AID 540263; active = rising FRET ratio curve, often small or poorly fitted; inconclusive = mostly compound fluorescence or quenching in the first reads; inactive = flat curves in all reads;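 further: potency means the concentration at half of the fitted maximal effect; 0% = DMSO wells and 100% = buffer wells lacking importin beta; nearly all actives have a fitted effect of over 15% in size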
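FRET biosensor Rango (snurportin 1 IBB between N-terminal EYFP and C-terminal Cerulean), 50 nM in PBS/1 mM DTT/0.02% Tween-20/0.1% BSA, preincubated 5 min RT with compound; 0.125 microM importin beta added, 45 min RT, CFP/YFP FRET ratio read.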
miR-21 reporter = miR-21 reporter, rising signal | HeLa miR-21 FLuc reporter, luciferase, 48 h | Potency, µM (top dose mostly 38.3 µM), for inactives: at the top dose reporter change, positive = more light | 340,000 tested, under 10 active; active = well fitted rising curve with a large enough effect; inconclusive = small, poorly fitted or top-dose-only effect; inactive = no such curve, though single readings can be large or run the other way;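 further: % of control where 0% means no effect; miR-21 action dims this reporter so a rising signal means less miR-21 action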
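HeLa cells stably expressing CMV-driven firefly luciferase with a downstream miR-21 binding sequence, endogenously expressing miR-21, were treated with titrations (up to about 40uM final) for 48 hours at 37 degree Celsius. Luciferase luminescence was read after lysis.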
Rango release inh = inhibition of RanGTP-driven Rango-importin beta dissociation; 0.071% of 340,000 active; Biochemical FRET Rango-importin beta, RanGTP-induced dissociation; Potency, µM (highest dose often 46.1 µM), for inactives: at the top dose activity change, negative = inhibition; O95149+P62826; active means falling FRET ratio curve, often poorly fitted, with flat reads before Ran was added; inconclusive means other falling curves, or compound fluorescence or quenching; inactive means flat or rising ratio curve;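 further: potency means the concentration at half of the fitted maximal effect; % of control where 0% means no effect; nearly all actives have a fitted effect of over 45% in size; -100% = wells without RanGTP and RCC1; the record marks most hits as doubtful in a second field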
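Rango/importin beta premix (0.1/0.25 uM final), PBS + 1 mM DTT + 0.02% Tween-20 + 0.1% BSA; cpd 5 min RT; FRET pre-read; + RanGTP-RCC1 (0.6 uM Ran, 2 mM GTP, 0.2 uM RCC1); 45 min RT; FRET post-read, ex 430, em 486/530 nm.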
The depositor's hits bear a star.

COc1cccc2cc(C(=O)NC(C)C3CCCO3)c(=O)oc12 (centres undefined) was read as GLA inh pH 4.5 3, Rango complex inh 0.3%, miR-21 reporter -50% and Rango release inh -6%.
Screening Cc1cc(SCC(=O)NCCN2C(=O)CSC2=O)nc2ccccc12 returned GLA inh pH 4.5 5, Rango complex inh -3.6%, miR-21 reporter -6% and Rango release inh 2%.
For Cc1ccc(C)c(S(=O)(=O)Nc2ccc(O)c(Sc3ncn[nH]3)c2)c1 the results were GLA inh pH 4.5 -8, Rango complex inh -1.8%, miR-21 reporter -1% and Rango release inh -10%.
Screening CCN1C/C(=C\c2cccc([N+](=O)[O-])c2)C(=O)/C(=C/c2cccc([N+](=O)[O-])c2)C1 returned GLA inh pH 4.5 -12, Rango complex inh -5.8%, miR-21 reporter 0% and Rango release inh 3%.
CC(C)N(C(=O)[C@H]1C[C@H](CC(=O)NCc2cccc(C(F)(F)F)c2)C(=O)N2CCc3c([nH]c4cc(CCC(=O)N(C)C)ccc34)[C@]12C)C(C)C was read as Rango complex inh 4.2% and Rango release inh 18%.
CCCOc1ccc(C(C)=O)cc1CSCCC#N was read as GLA inh pH 4.5 -6, Rango complex inh -2.5%, miR-21 reporter -7% and Rango release inh -3%.
`O=C1NC(=O)C2(CCCCC2C2CCCCC2)N1` (centres undefined) gave Rango complex inh 1.8% and Rango release inh 5%.
Screening O=S(=O)(NCCOc1ccc(F)cc1)c1ccc2c(c1)OCCO2 returned GLA inh pH 4.5 -2, Rango complex inh 7.0%, miR-21 reporter -1% and Rango release inh 14%.
Screening O=C(CCC(=O)OCc1ccc(C(=O)Oc2ccccc2)cc1)Nc1cccc2ccccc12 returned GLA inh pH 4.5 0, Rango complex inh 0.3%, miR-21 reporter -1% and Rango release inh 4%.
For Cc1ccccc1CN1C(=O)Nc2ccccc2C(=O)N1C(C)(C)C the results were GLA inh pH 4.5 2, Rango complex inh -0.3%, miR-21 reporter -3% and Rango release inh 18%.
Screening CCOc1ccc(NC(=O)CSc2nc3c(c(=O)n2-c2ccccc2OC)SCC3)cc1 returned GLA inh pH 4.5 7, Rango complex inh 1.9%, miR-21 reporter 0% and Rango release inh -13%.
`C=CCc1c(OC)ccc2ccc(=O)oc12` gave GLA inh pH 4.5 3, Rango complex inh 0.6%, miR-21 reporter -2% and Rango release inh 1%.
For CN1CCC(N(C)C(=O)c2cc(S(=O)(=O)N3CCOCC3)ccc2Cl)CC1 the results were Rango complex inh -4.7% and Rango release inh 1%.
Screening COc1ccc(NC(=S)NC(=O)Cc2ccccc2)c(OC)c1 returned Rango complex inh 0.2%, miR-21 reporter -4% and Rango release inh -20%.
`C=CCOc1ccc(C(=O)n2cc(C(=O)OC)c3ccccc32)cc1` gave Rango complex inh 10.0%, miR-21 reporter -6% and Rango release inh -20%.
For Cc1cc(C)cc(NC(=O)N2CCC(C(=O)c3ccc(F)cc3)CC2)c1 the results were GLA inh pH 4.5 -2, Rango complex inh inconclusive, miR-21 reporter 9% and Rango release inh 3%.
Screening CC1CC(C)(C)CC2(C1)NC(=O)N(CC(=O)Nc1ccc(N3CCCCC3)cc1)C2=O (centres undefined) returned Rango complex inh -0.1%, miR-21 reporter -19% and Rango release inh 0%.
For CCOc1c(Br)cc(/C=N\NC(=O)c2ccccc2)cc1OC the results were GLA inh pH 4.5 2, Rango complex inh 4.5%, miR-21 reporter -31% and Rango release inh 2%.
For O=c1oc(Nc2ccc(F)cc2)nc2ccccc12 the results were GLA inh pH 4.5 1, Rango complex inh -0.1%, miR-21 reporter -43% and Rango release inh 25%.
Cc1ccc(/C=N/NC(=O)C2CC(=O)N(c3ccccc3)C2)s1 (centres undefined) was read as GLA inh pH 4.5 1, Rango complex inh 0.0%, miR-21 reporter -33% and Rango release inh 4%.
Screening O=C(O)c1ccc(N2C(=O)CC(N3CCN(c4cccc(Cl)c4)CC3)C2=O)cc1 (centres undefined) returned Rango complex inh 1.0%, miR-21 reporter -7% and Rango release inh -11%.
For S=c1[nH]nc(C2CCCCC2)n1/N=C/c1ccc(Cl)cc1 the results were Rango complex inh 1.5%, miR-21 reporter -8% and Rango release inh 14%.
Screening O=C(CSc1ccc2nnc(-c3ccncc3)n2n1)N1CCc2ccccc21 returned GLA inh pH 4.5 1 and miR-21 reporter -1%.
`C=CCn1c(SCC(=O)Nc2nncs2)nnc1-c1ccco1` gave Rango complex inh 0.2%, miR-21 reporter 1% and Rango release inh 4%.

Ordered by length of the SMILES (largest number first): some entries from above
For CN1CCC(N(C)C(=O)c2cc(S(=O)(=O)N3CCOCC3)ccc2Cl)CC1 the results were Rango complex inh -4.7% and Rango release inh 1%.
Screening O=C(CSc1ccc2nnc(-c3ccncc3)n2n1)N1CCc2ccccc21 returned GLA inh pH 4.5 1 and miR-21 reporter -1%.
For CCOc1c(Br)cc(/C=N\NC(=O)c2ccccc2)cc1OC the results were GLA inh pH 4.5 2, Rango complex inh 4.5%, miR-21 reporter -31% and Rango release inh 2%.

The results go on.
Screening CCOC(=O)N1CCN(C(=O)CSc2ccccc2)CC1 returned GLA inh pH 4.5 6, Rango complex inh -0.9%, miR-21 reporter -9% and Rango release inh -4%.
Screening Cc1ccc(S(=O)(=O)N2CCOCC2)cc1C(=O)OCC(=O)N(Cc1ccccc1)C(C)C returned Rango complex inh 4.2% and Rango release inh inconclusive.
`CCOC(=O)c1oc2ccccc2c1COC(=O)CNC(=O)c1ccco1` gave Rango complex inh -3.0% and Rango release inh -14%.
O=C(c1ccco1)n1nc(-c2ccc(Cl)cc2)nc1NCc1ccco1 was read as GLA inh pH 4.5 13, Rango complex inh 0.6%, miR-21 reporter -14% and Rango release inh -15%.
`CC(C)(C)OC(=O)N1CCN(C(=O)OCC2c3ccccc3-c3ccccc32)CC1C(=O)O` (centres undefined) gave Rango complex inh 0.8% and Rango release inh 6%.
COc1ccc(C(C)=O)cc1COc1ncnc2ccccc12 was read as GLA inh pH 4.5 2, Rango complex inh -0.6%, miR-21 reporter -5% and Rango release inh -17%.
For COc1ccccc1CCNS(=O)(=O)c1cc2c3c(c1)CCN3C(=O)CC2 the results were Rango complex inh 0.0% and Rango release inh -12%.
For CC(C)(C)n1nnnc1C(c1cccnc1)N1CCOCC1 (centres undefined) the results were GLA inh pH 4.5 2, Rango complex inh -2.1%, miR-21 reporter 4% and Rango release inh 19%.
`CC(SCc1ccccc1)C(=O)NC1CCCC1` (centres undefined) gave GLA inh pH 4.5 -3, Rango complex inh -1.8%, miR-21 reporter -6% and Rango release inh -9%.
`OC(COc1ccccc1Br)CN1CCNCC1` (centres undefined) gave Rango complex inh -0.6%, miR-21 reporter -5% and Rango release inh 23%.
CCOc1cc2c(cc1OC)C(NC(=O)C(F)(F)F)CC2=O (centres undefined) was read as GLA inh pH 4.5 -1, Rango complex inh inconclusive, miR-21 reporter -2% and Rango release inh -29%.
Screening CCOC(=O)c1sc(NC(=O)CN2CC(C)OC(C)C2)nc1C (centres undefined) returned Rango complex inh -1.2%, miR-21 reporter 1% and Rango release inh 2%.
O=C(O)CCN1C(=O)c2ccc(NC(=O)CSc3ccccc3)cc2C1=O was read as GLA inh pH 4.5 1, Rango complex inh -1.1%, miR-21 reporter 0% and Rango release inh 1%.
`CCc1nnc(NC(=O)c2cc(-c3ccncc3)nc3ccccc23)s1` gave GLA inh pH 4.5 0, Rango complex inh -3.6%, miR-21 reporter -2% and Rango release inh 3%.
For CC1CCCN(C(=O)c2ccc3c(c2NCCO)C(=O)c2ccccc2C3=O)C1 (centres undefined) the results were GLA inh pH 4.5 2, Rango complex inh -0.3%, miR-21 reporter 10% and Rango release inh inconclusive.

Quoted from the results shown (eleven entries):
Screening CCOC(=O)N1CCN(C(=O)CSc2ccccc2)CC1 returned GLA inh pH 4.5 6, Rango complex inh -0.9%, miR-21 reporter -9% and Rango release inh -4%.
Screening Cc1ccc(S(=O)(=O)N2CCOCC2)cc1C(=O)OCC(=O)N(Cc1ccccc1)C(C)C returned Rango complex inh 4.2% and Rango release inh inconclusive.
`CCOC(=O)c1oc2ccccc2c1COC(=O)CNC(=O)c1ccco1` gave Rango complex inh -3.0% and Rango release inh -14%.
O=C(c1ccco1)n1nc(-c2ccc(Cl)cc2)nc1NCc1ccco1 was read as GLA inh pH 4.5 13, Rango complex inh 0.6%, miR-21 reporter -14% and Rango release inh -15%.
`CC(C)(C)OC(=O)N1CCN(C(=O)OCC2c3ccccc3-c3ccccc32)CC1C(=O)O` (centres undefined) gave Rango complex inh 0.8% and Rango release inh 6%.
COc1ccc(C(C)=O)cc1COc1ncnc2ccccc12 was read as GLA inh pH 4.5 2, Rango complex inh -0.6%, miR-21 reporter -5% and Rango release inh -17%.
For COc1ccccc1CCNS(=O)(=O)c1cc2c3c(c1)CCN3C(=O)CC2 the results were Rango complex inh 0.0% and Rango release inh -12%.
For CC(C)(C)n1nnnc1C(c1cccnc1)N1CCOCC1 (centres undefined) the results were GLA inh pH 4.5 2, Rango complex inh -2.1%, miR-21 reporter 4% and Rango release inh 19%.
`CC(SCc1ccccc1)C(=O)NC1CCCC1` (centres undefined) gave GLA inh pH 4.5 -3, Rango complex inh -1.8%, miR-21 reporter -6% and Rango release inh -9%.
`OC(COc1ccccc1Br)CN1CCNCC1` (centres undefined) gave Rango complex inh -0.6%, miR-21 reporter -5% and Rango release inh 23%.
CCOc1cc2c(cc1OC)C(NC(=O)C(F)(F)F)CC2=O (centres undefined) was read as GLA inh pH 4.5 -1, Rango complex inh inconclusive, miR-21 reporter -2% and Rango release inh -29%.

A portion of the library (hit frequency here may not be typical).
